# GIV Gai3 FP: inhibitors of GIV peptide binding to Galpha-i3, primary screen, biochemical, fluorescence polarization, FITC-GIV GBA peptide, rat Galphai3; 210,000 tested, 0.42% active; Guanine nucleotide-binding protein G(i) subunit alpha-3 (Rattus norvegicus), P08753; AID 1224905, 2016; percent of control (FP), % (no concentration beside the values); 90 min; active compounds read low; scaled: aluminum fluoride 0%, vehicle 100%;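 active = replicate mean at 85% of control or lower, very high polarization wells dropped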;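 note: wells of about 15 µL received 100 nL stock; the first replicate is given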
# Target sequence (P08753 whole entry, looked up): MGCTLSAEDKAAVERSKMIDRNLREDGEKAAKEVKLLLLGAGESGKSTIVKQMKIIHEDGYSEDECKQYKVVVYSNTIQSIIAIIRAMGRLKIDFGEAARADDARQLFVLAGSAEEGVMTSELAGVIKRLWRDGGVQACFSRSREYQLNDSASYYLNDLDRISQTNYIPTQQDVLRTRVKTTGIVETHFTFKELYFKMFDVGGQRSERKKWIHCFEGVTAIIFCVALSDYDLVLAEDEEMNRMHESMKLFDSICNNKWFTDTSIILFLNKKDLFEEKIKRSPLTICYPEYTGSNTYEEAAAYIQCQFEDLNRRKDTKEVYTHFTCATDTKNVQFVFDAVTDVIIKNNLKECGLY
# Sa growth 42C: S. aureus growth inhibition at 42 and 30 °C, primary screen, LtaS inhibitor project, RN4220, two temperatures | OD600, 20 h, 42 °C; active compounds read low | relative growth, % (concentration not given with the values) | 170,000 tested, 0.53% active | AID 720641, 2013;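 active = growth at 42 °C up to 50% and 20 or more points under that at 30 °C, or under 10% at both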;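 note: 300 nL library stock went into each well; scaled to the means of positive and negative controls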
# HCMV NEC inh: inhibitors of HCMV UL50-UL53 interaction, biochemical, HTRF. 190,000 tested, 0.15% active. AID 1918969, 2023. HCMV UL50-UL53 nuclear egress complex (human cytomegalovirus). normalized percent inhibition. inhibition, % (concentration not given with the values);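 active = both replicates at 50% or more, plus weaker picks with an unusually low signal ratio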;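 note: stock transfer was 100 nL into about 20 µL; 0% = negative control wells and 100% = wells with untagged competitor protein; inactives centre near -12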
# Sa growth 42C second temp: also measured in Sa growth 42C; calls as there; relative growth, %; measured here: growth at 30 °C;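 optical density after 20 h as mean of two plates; 100% = untreated growth and lower means inhibition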
# * hit, by the source's call; · = not tested or not shown; & = joins results of further samples. Compounds were not picked by outcome; overall some 0.85% were active at least once.
SMILES,GIV Gai3 FP,Sa growth 42C,Sa growth 42C second temp,HCMV NEC inh
CCNC(=O)NC1(C(=O)Nc2ccc3c(c2)OCCO3)CCCCC1,98,90,78,10
Cc1ccc(N2C(=O)CN(CCc3ccccc3)[C@H]3CS(=O)(=O)C[C@H]32)cc1C,106,·,·,7
O=C(O)c1nn(CC(=O)N2N=C(c3ccc(Cl)cc3)CC2c2ccco2)c(=O)c2ccccc12 (stereo not given),·,93,95,-17
COc1ccc(C2=NN(C(=O)CCC(=O)O)C(c3ccc(OC)c(OC)c3)C2)cc1OC (stereo not given),100,·,·,-20
O=C(NCCc1c[nH]c2ccc(Cl)cc12)c1cccc(NC(=O)c2nnc(C3CC3)s2)c1,101,·,·,-12
CCC(C(=O)Nc1ccc2c(c1)OCCO2)n1c(=O)c(-c2ccccc2NC(C)=O)nc2ccccc21 (stereo not given),101,·,·,-20
COC(=O)c1nnn(CC(=O)Nc2ccccc2)c1N,99,94,90,-33
CCCCNC(=O)c1ccc2c(c1)NC(=O)C(CS(=O)(=O)Cc1ccccc1Cl)N2 (stereo not given),159,103,93,-28
COc1ccc(N/N=C(\C#N)C(=O)Nc2ccccc2C(=O)O)cc1Cl,·,98,95,-85
CCCCn1c(=O)oc2ccc(C)cc21,102,94,77,-24
COC(=O)c1ccc2c(=O)[nH]c(COC(=O)c3ccc(Cl)c(N)c3)nc2c1,·,105,89,1
Cc1ccc(Cn2c(CN3CCN(c4cccc(Cl)c4)CC3)nc3c2c(=O)n(C)c(=O)n3C)cc1,112,76,75,-7
CCN(CC)CCSc1nc(CC(C)C)nc2c1c(=O)n(C)c(=O)n2C,105,81,80,-39
COC(=O)CN(c1ccc(C(C)C)cc1)S(=O)(=O)c1c(C)[nH]c(=O)[nH]c1=O,103,77,87,·
COc1cccc2c1Oc1nn(-c3ccccc3)c(N)c1C2,115,86,87,-14
COc1ccc2c(C(=O)O)cc(=O)[nH]c2c1,104,135,75,·
O=C(O)C1CC(=O)N(CCOc2ccccc2)C1 (stereo not given),109,85,85,22
Cc1ccc(-c2c(C)n([O-])c(C)c(C)[n+]2=O)cc1,101,97,104,-29
CCOCCCNC(=O)C(c1ccc(Cl)cc1)N(Cc1cccs1)C(=O)c1ccc(NC(C)=O)cc1 (stereo not given),103,92,89,13
CC1CCN(C(=O)c2ccc3nc(N4CCCCC4)sc3c2)CC1,96,·,·,-6
CCCN1C(=O)c2c(C(=O)Nc3ccc(CC)cc3)ncn2CC1(C)C(=O)NCc1ccccc1 (stereo not given),103,·,·,-14
Cc1ccccc1N1CCN(S(=O)(=O)c2nnc(NC(=O)c3ccc(Cl)cc3)s2)CC1,101,91,86,-10
CN1C(=O)CC(=O)N(C)c2ccccc21,103,100,98,1
CCCN1CCN(C(=O)c2cc3cc4ccc(OC)c(Cl)c4nc3s2)CC1,104,·,·,-115
NS(=O)(=O)c1ccc(CNC(=O)CCC2CCCCC2)cc1,·,109,94,14
O=C(/C=C/c1ccccc1)Nc1ccc(Oc2ccc(F)cc2F)nc1,102,85,91,-2
Cc1cccc(C)c1NC(=O)Cn1c(=O)cc(C)c2c(C)nn(-c3cccc(Cl)c3C)c21,93,100,87,·
Cn1c(=O)c2c(ncn2CC(=O)N/N=C/c2ccc(Br)s2)n(C)c1=O,100,87,80,-65
Cn1c(=O)c2c(-c3cccc(Br)c3)n(CC3CCCO3)cc2n(C)c1=O (stereo not given),102,·,·,1
O=C(O)c1cc(=O)[nH]c2c(Cl)cc(Cl)cc12,99,101,87,-5

# Grouped by structure, the entries above containing a thiophene ring, fused or not (3)
SMILES,GIV Gai3 FP,Sa growth 42C,Sa growth 42C second temp,HCMV NEC inh
CCOCCCNC(=O)C(c1ccc(Cl)cc1)N(Cc1cccs1)C(=O)c1ccc(NC(C)=O)cc1 (stereo not given),103,92,89,13
CCCN1CCN(C(=O)c2cc3cc4ccc(OC)c(Cl)c4nc3s2)CC1,104,·,·,-115
Cn1c(=O)c2c(ncn2CC(=O)N/N=C/c2ccc(Br)s2)n(C)c1=O,100,87,80,-65

# (continued)
SMILES,GIV Gai3 FP,Sa growth 42C,Sa growth 42C second temp,HCMV NEC inh
COc1ccc(S(=O)(=O)N2CC=C(c3c(C)n(C)c4ccccc34)CC2)cc1OC,101,·,·,-6
Cc1nn(C)c(C)c1CCNC(=O)Nc1ccccc1Cl,102,·,·,-20
CCOc1cc(-c2cc(C(=O)O)c3c(-c4ccccc4)[nH]nc3n2)ccc1O,101,90,90,-13
CCCCN(C)C(=S)Nc1ccc2nc3n(c(=O)c2c1)CCCCC3,98,110,93,·
COc1ccc(-c2nnc(SCc3cccc(C#N)c3)o2)cc1,99,119,101,5
CCN(CC)c1nc2ccccc2nc1C(=O)Nc1cc(OC)c(OC)c(OC)c1,104,103,103,·
CCN(c1ccccc1C(=O)O)S(=O)(=O)c1cccc2nsnc12,106,96,78,-85
Cc1nc2ccccc2nc1CSCc1n[nH]c(=O)[nH]1,102,93,85,0
CSc1ccccc1NC(=O)COC(=O)/C=C/c1ccco1,·,86,90,-64
NC1=NC(=O)C(CC(=O)Nc2ccc(C(F)(F)F)cc2)S1 (stereo not given),·,112,92,-8
O=c1[nH]c(=S)n(CCc2ccccc2)c2c1CN(CCc1ccccc1)CN2,105,99,84,-33
O=C1Nc2ccccc2/C1=C\c1cccs1,102,90,62,-65
CCc1nnc(NC(=O)c2nn(-c3ccccc3)ccc2=O)s1,111,108,87,-40
CCc1c(C)nc(SCCOc2ccc(OC)cc2)[nH]c1=O,103,94,86,-1
CCN1CCN(c2nc(C)c(Cc3ccc(Cl)cc3)c(=O)[nH]2)CC1,102,·,·,-7
CC1C/C(=C/c2cccs2)C(=O)/C(=C/c2cccs2)C1 (stereo not given),104,78,73,8
Cc1cnc(NC(=O)CSc2ccc(Cl)cc2)s1,·,85,90,2
N#Cc1sc2c(c1OC(=O)c1cccs1)c(=O)n(-c1ccccc1)c(=S)n2-c1ccccc1,99,92,84,-24
CCC1(C)OC(=O)N(c2ccc(C)cc2)C1(C)O (stereo not given),103,116,80,-26
O=C1Nc2ccc(Br)cc2C1Cc1ccco1 (stereo not given),128,89,73,26
CC(C)c1ccc(OC(=O)C(C)N2C(=O)c3ccccc3C2=O)cc1 (stereo not given),·,89,95,-5
CCN(Cc1ccccc1)C(=O)CSc1nc2nc(C)c(Cc3ccccc3Cl)c(C)n2n1,101,93,86,·
CC(C)N(C(=O)CSc1nncn1C)c1ccccc1,·,100,99,10
CSc1nc2ccc(NC(=O)c3cccc([N+](=O)[O-])c3)cc2s1,107,·,·,-39
CCOC(=O)c1[nH]cnc1C(=O)Nc1ccccc1,·,111,78,-39
Cc1ccc(-c2nnc(Nc3cccc(Cl)c3)c3ccccc23)cc1S(=O)(=O)NCC1CCCO1 (stereo not given),111,112,114,2
COc1cccc(NC(=O)N2CCNCC2)c1,100,110,84,-7
COc1cccc(CNCc2cccnc2)c1OCC(N)=O,102,95,83,-7
Cc1ccc(N2CC(C(=O)NCc3ccncc3)CC2=O)cc1C (stereo not given),105,93,80,·
CC(=O)NC(NCc1ccccc1)(C(F)(F)F)C(F)(F)F,105,120,97,12

# Reprinted from the results shown (7 entries):
SMILES,GIV Gai3 FP,Sa growth 42C,Sa growth 42C second temp,HCMV NEC inh
CSc1nc2ccc(NC(=O)c3cccc([N+](=O)[O-])c3)cc2s1,107,·,·,-39
CCOC(=O)c1[nH]cnc1C(=O)Nc1ccccc1,·,111,78,-39
Cc1ccc(-c2nnc(Nc3cccc(Cl)c3)c3ccccc23)cc1S(=O)(=O)NCC1CCCO1 (stereo not given),111,112,114,2
COc1cccc(NC(=O)N2CCNCC2)c1,100,110,84,-7
COc1cccc(CNCc2cccnc2)c1OCC(N)=O,102,95,83,-7
Cc1ccc(N2CC(C(=O)NCc3ccncc3)CC2=O)cc1C (stereo not given),105,93,80,·
CC(=O)NC(NCc1ccccc1)(C(F)(F)F)C(F)(F)F,105,120,97,12

# (cont.)
SMILES,GIV Gai3 FP,Sa growth 42C,Sa growth 42C second temp,HCMV NEC inh
COCC(=O)c1[nH]c2ccccc2c1C,108,47,28,-62
O=C(Nc1cccc(O)c1)c1cccc(S(=O)(=O)N2CCCCC2)c1,98,120,92,-8
CC(Cc1ccccc1)N=c1nc2c(ncn2C)c(N)n1C (stereo not given),104,91,81,·
CCOC(=O)C1CCN(C(=O)c2sc3cc(F)ccc3c2Cl)CC1,·,105,94,2
COc1ccc(NC(=O)CSc2nc(-c3ccc(OC)cc3)[nH]c2-c2ccc(F)cc2)cc1,101,94,90,-3
COC(=O)c1ccc(Nc2ncnc3ccccc23)cc1,·,87,88,-11
Cc1sc(N)c(C(=O)c2cccc(C(F)(F)F)c2)c1C,·,78,78,-12&-42
CCC1NCCc2sccc21 (stereo not given),98,92,88,-10
COc1ccc(CNC(=O)C(=O)Nc2ccccc2OC)cc1,104,94,93,-25
CCN(CC)S(=O)(=O)c1ccc(C(=O)Nc2nc(-c3ccc4c(c3)OCO4)cs2)cc1,104,100,77,-2
Cc1ccc(C(=O)CC2(O)C(=O)N(Cc3ccccc3)c3ccc(Br)cc32)cc1 (stereo not given),98,106,92,·
CSc1ncccc1C(=O)Nc1ccc(S(C)(=O)=O)cc1,·,86,98,-28
O=C(O)c1cncc(C(=O)O)c1,·,77,108,1
O=C(NCCc1ccccc1)c1ccc2c(=O)n3nc(Nc4ccccc4)sc3nc2c1,105,99,108,21
Cc1coc2cc3oc(=O)c(CC(=O)NCCc4ccccc4)c(C)c3cc12,102,107,85,-39
N#Cc1ccc(NC(=O)COC(=O)/C=C/c2cn(-c3ccccc3)nc2-c2cc3ccccc3o2)cc1,·,94,100,-2
O=P(O)(Cc1ccccc1)Cc1ccccc1,101,99,100,-2
Cc1ccc(NC(=O)c2cccs2)cc1,105,90,99,5
FC(F)(F)c1cc(-c2cccnc2)nc2c(-c3ccccc3)cnn12,103,·,·,-24
O=C(O)CCC(=O)Oc1ccccc1,·,85,94,-6
CCN(CC)C(=O)c1sc(NC(=S)Nn2cnnc2)c(C(=O)OC)c1C,104,99,103,10
Cc1cccc(N(C)C(=O)c2cc(S(=O)(=O)N3CCc4ccccc43)cn2C)c1,108,108,79,-9
Cc1cccc(C)c1NC(=O)CN(C)S(=O)(=O)c1ccc2[nH]c3c(c2c1)CCCC3,108,83,79,·
CCC(C)NS(=O)(=O)c1cc(-c2cc(C)no2)ccc1C(C)C (stereo not given),98,93,87,-22
O=c1c2c3c(sc2n(Cc2cccc(Cl)c2)c(=O)n1-c1ccccc1)CCC3,103,100,93,·
COc1ccc(CNC(=O)CCc2c(C)c3ccc(OC)c(C)c3oc2=O)cc1OC,97,94,85,-47
CCn1nc(C(=O)Nc2ccc(OC)cc2)c2ccccc2c1=O,·,83,91,-35
Cc1cc(Nc2cc(Cl)cc(Cl)c2)nc(N)n1,107,99,72,9
CCCCN(C(=O)C1CCC1)c1nnc(-c2ccncc2)s1,105,87,94,13
O=C(CN1c2ccccc2-c2ccccc2S1(=O)=O)N1CCCCC1,107,97,66,·
CC1(C)C(=O)N(CC(=O)NCc2ccccc2Cl)c2ccccc21,107,·,·,0
COc1ccc(S(=O)(=O)NCCC23CC4CC(CC(C4)C2)C3)cc1,·,101,99,-1
Cc1cc(O)cc(=O)n1Cc1ccccc1,100,95,80,-38
CCOC(=O)c1c(C)nn(-c2ncccc2NC(=O)c2ccccc2C(=O)O)c1C,100,99,85,-23
COc1cc2c(cc1OC)C(COc1ccc(F)cc1)N(C(=S)Nc1cccc(C)c1C)CC2 (stereo not given),100,119,83,·
Clc1ccc(C2=NN=C(N3CCCC3)SC2)cc1,·,32,29,-61
CC(=O)N1c2ccc(S(=O)(=O)N3CC(=O)N(CCc4ccccc4)C(=O)C3)cc2CC1C (stereo not given),95,95,92,-19
O=C1CCCC2=C1C(c1ccccn1)Nc1ccc3ncccc3c12 (stereo not given),98,88,84,-34
COCCNC(=O)c1sc2ncccc2c1-n1c(C)ccc1C,101,77,85,·
COC(=O)C1=CN(c2cc(C)cc(C)c2)C=C(C(=O)OC)C1c1ccc(OC)c(O)c1,107,78,99,·
COC(=O)C1=C(N)OC2=C(C(=O)CC(C)(C)C2)C1c1cccc(C)c1 (stereo not given),101,·,·,-25
CCCN(CCC)C(=O)c1cc(S(=O)(=O)N2CCc3ccccc32)cn1C,107,133,85,·
COc1ccc(C2=NC3(CCCCCC3)N(CC(=O)Nc3cccc(Cl)c3)C2=O)cc1,101,110,92,-10
O=C(N/N=C/c1ccco1)c1nn(Cc2ccccc2)c(=O)c2ccccc12,·,102,92,-27
Cc1cc(S(=O)(=O)N2CCN(C)CC2)c(C)cc1Cl,108,87,96,-1

# Part of the list above with just Sa growth 42C second temp:
SMILES	Sa growth 42C second temp
COc1cccc2c1Oc1nn(-c3ccccc3)c(N)c1C2	87
Cc1ccc(-c2nnc(Nc3cccc(Cl)c3)c3ccccc23)cc1S(=O)(=O)NCC1CCCO1 (stereo not given)	114

# Source: PubChem
